# Compound activity deposited in PubChem BioAssay by ICCB-Longwood Screening Facility, Harvard Medical School.
# Ab BasE inh – BasE siderophore enzyme inhibitors, primary screen, biochemical, Acinetobacter baumannii ATCC 17978, fluorescence polarization. 84,000 tested, 0.1% active. purified BasE, fluorescence polarization binding displacement. AID 485350, 2010. inhibition, % (no concentration beside the values);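 active means both replicates above 25% with normal brightness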;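 further: 0% = negative plate control signal and 100% = positive plate control signal; stock transfer was 100 nL into about 30 µL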
# LANA-nucl inh – inhibitors of KSHV LANA-nucleosome binding, primary screen, biochemical, fluorescence polarization, FITC-LANA1-23, chicken nucleosomes | z-score (no concentration beside the values) | AID 720717, 2013 | FITC-LANA1-23 / chicken nucleosome fluorescence polarization; active compounds read low | 51,000 tested, 0.3% active;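 active means both repeat wells score below -2 in polarization z-score versus plate sample wells, excluding overly bright wells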;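 further: 100 nL library stock added to about 30 µL; numbers are from one replicate; some results filed as inactive read as strong as hits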
#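 Test system: purified chicken nucleosomes with FITC-labelled LANA N-terminal peptide (1-23); Input: 240 nM purified chicken nucleosomes (480 nM peptide binding sites), final; Medium: TEN-BT buffer, pH 7.5; Timing: 10–45 min, room temperature; Technique: fluorescence polarization, 480 nm excitation, 535 nm parallel and perpendicular emission; Replication: duplicates.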
# The depositor's hits bear a star; / = not tested or not shown; & = joins results of further samples.
SMILES	Ab BasE inh	LANA-nucl inh
COc1cccc(C2C(C#N)=C3N=C(N)c4ccccc4N3C3=C2C(=O)CCC3)c1 (stereo not given)	-0.2	0.254
CCCN(CCC)C(=O)Cn1c(=O)n(Cc2ccc(C(=O)NCc3ccco3)cc2)c(=O)c2ccccc21	1.3	0.258
CN1N=C2c3ccccc3CCCC2C1c1ccc2c(c1)OCO2 (stereo not given)	0.5	/
CNCc1ccc(SC)cc1	0.0	/
O=C(Nc1cc(C(F)(F)F)ccc1Cl)C1=COCCO1	-2.7	/
CCN1C(=O)c2cccc3c(NC(=O)c4cccc(OC)c4)ccc1c23	-2.0	0.71
NC(=O)c1cccc(CNC(=O)c2ccccc2C(N)=O)c1	-2.9	/
O=C(NCCCN1CCOCC1)c1cc2sc3ccccc3c2s1	-8.9	/
CCN(CC)c1ccc(C(=S)N2CCN(CCO)CC2)cc1	-0.9	0.203
NC(=O)c1cc(S(=O)(=O)NC2CCCc3ccccc32)cs1 (stereo not given)	-4.2	-0.237
Cc1cc(C(=O)ONC(=O)c2ccco2)nn1-c1cc(Cl)ccc1Cl	-0.3	-0.417
CCOc1ccc(-c2n[nH]c(=S)n2CC)cc1	-0.5	0.921
FC(F)(F)c1cc(Cl)nc(-c2ccccc2)n1	-1.1	0.298
NC(=O)COC(=O)c1ccc(Cl)c(S(=O)(=O)N2CCCCCC2)c1	11.3	/
CC1CN(C(=O)COC(=O)/C=C/c2ccc(C(F)(F)F)cc2)CC(C)O1 (stereo not given)	-4.0	/
Nn1c(SCc2cccc(Br)c2)nnc1-c1ccccc1	-2.6	-0.635
O=C(CCc1nc2ccccc2c(=O)[nH]1)Nc1ccc(F)cc1	14.3	/
CN(C)S(=O)(=O)c1cccc(-c2nnc(SCc3ccc4c(c3)OCCO4)o2)c1	0.7	/
Cc1sc2ncnc(N3CCC(C(=O)OCC(=O)NC4CC4)CC3)c2c1C	2.2	/
CCN(CCO)C1CC(=O)N(c2ccccc2C)C1=O (stereo not given)	0.9	-0.346
Cc1noc(C)c1CSCC(=O)N1CC(C)SC1=Nc1ccc(Cl)cc1 (stereo not given)	0.7	/
CC1CCCN(C(=O)C2CCN(CC3CC=CCC3)CC2)C1 (stereo not given)	5.1	-0.0095
N#C/C(N=Cc1cccs1)=C(\C#N)NCc1c(F)cccc1Cl	-1.7	/
CN(C)c1ccc(/C=C2/S/C(=N/O)NC2=O)cc1	-9.5	/
CC(=O)N=c1cccc(NC(C)=O)n1O	-1.5	-0.17
CCCn1c(N2CCN(Cc3ccc(Cl)cc3)CC2)nc2ccccc21	-0.9	-1.46
N#CCC(=O)Nc1ccncc1	0.7	/
O=C(c1ccccn1)N1CCN(c2ccc(C(F)(F)F)cn2)CC1	0.9	/
CC1C2=C(CCCC2=O)Nc2nc3ccccc3n21 (stereo not given)	2.2	-0.973
Oc1ccc(N=Cc2cn(-c3ccccc3)nc2-c2ccco2)cc1	-0.8	/
COc1ccc(NC(=O)/C(=C/c2ccc3c(c2)OCO3)NC(C)=O)cc1	0.0	0.124
CC(=O)NC(c1ccccc1)c1ccc2cccnc2c1O (stereo not given)	2.5	/
Cn1c(=O)c2c(O)c(C=Nc3ccc(Cl)cc3)c(=O)n(C)c2n(C)c1=O	4.5	/
Cc1ccc(C)n1CCC(C)C	-0.8	/
CCCc1c(C)nn(-c2ncccc2N)c1C	/	-0.788
O=C(O)CCn1c(-c2cccs2)n[nH]c1=S	1.6	/
COc1ccccc1NS(=O)(=O)c1ccc2oc(SCc3cn4c(C)cc(C)nc4n3)nc2c1	-0.6	/
CC(C)CC(C(=O)NCc1ccccc1F)N1C(=O)C2CC=CCC2C1=O (stereo not given)	1.3	/
Cc1nc2c(c(C)c1CCC(=O)NC(C)C)c(=O)n(C)c(=O)n2C	2.7	-1.06
CCCCCC1=CCC/C1=N\NC(=O)c1ccc(N(CC)CC)cc1	-0.9	/
Cc1oc(-c2cc(Cl)ccc2Cl)cc1C(=O)NCCO	1.9	/
CC1(c2ccc(Cl)cc2)NC(=O)CS1 (stereo not given)	0.8	-2.4*
CC(C)NC(=S)N1CCCN2C(=O)c3ccccc3C21 (stereo not given)	-0.1	/
CSc1c(C#N)c(-c2cccs2)nn1CC(=O)N/N=C/c1cccs1	2.9	-0.582
Cn1nc(-c2ccc(S(=O)(=O)NCc3ccco3)s2)cc1C(F)(F)F	1.3	-0.88
CC1=CC(C)C(C(=O)O)C(C(=O)Nc2ccccc2)C1 (stereo not given)	3.3	/
Cc1nc(C)c(C(=O)NCc2ccccc2Cl)o1	-0.9	2.69
O=C(COC(=O)C1CC1)c1ccc(Cl)s1	0.4	/
Nc1nc(SCC(=O)N(C2CCCCC2)C2CCS(=O)(=O)C2)nc2sc3c(c12)CCCC3 (stereo not given)	1.0	/
Cc1cc(C)cc(NS(=O)(=O)c2coc(C(N)=O)c2)c1	-0.1	-0.582
COC(=O)Nc1cccc(NC(=O)OC)c1F	-1.1	0.392
COc1cccc(N2C(=O)C=CC2=O)c1	4.4	0.499
S=C(NCc1ccco1)Nc1ccccc1	-4.1	2.03
CCOc1ccc(/C=c2/sc3nnc(-c4ccccc4C)n3c2=O)cc1	2.0	/
O=c1c(C2NCCC3(O)CCCCC23)coc2ccc(Cl)cc12 (stereo not given)	-3.3	0.144
Cc1nc2ccn(Cc3ccccc3)c(=O)c2cc1C(=O)O	-2.5	0.155

# Later entries
SMILES	Ab BasE inh	LANA-nucl inh
CC(=O)NC(Cc1c[nH]c2ccccc12)C(=O)OCc1cc(=O)n2c3c(sc2n1)CCCC3 (stereo not given)	-0.5	/
O=C(CNC(=O)c1cccc(F)c1)OC1CCCCC1=O (stereo not given)	0.6	/
CN(C)C(=O)Cn1c(=O)n(S(=O)(=O)c2ccccc2)c2ccccc21	-1.0	-0.013
Cc1ccc2c(c1)cc(CN(Cc1ccco1)C(=O)N(C)C)c1nnnn12	1.6	-0.998
O=C(Nc1cccnc1)OC1CCCC1	0.5	-0.732
CC(NCc1ccccc1)C1COc2ccccc2O1 (stereo not given)	2.8	/
COc1ccc(S(=O)(=O)N2CCC(NC(=O)NCC3CCCO3)CC2)cc1 (stereo not given)	2.4	0.3
O=C(CN1CCCCC1)N/N=C/c1ccc(/C=N/NC(=O)CN2CCCCC2)cc1	-0.3	-0.227

# Copied from the list.
# In LANA-nucl inh, S=C(NCc1ccco1)Nc1ccccc1 reads 2.03
# In Ab BasE inh, COc1ccccc1NS(=O)(=O)c1ccc2oc(SCc3cn4c(C)cc(C)nc4n3)nc2c1 reads -0.6
# In Ab BasE inh, Cc1cc(C(=O)ONC(=O)c2ccco2)nn1-c1cc(Cl)ccc1Cl reads -0.3
# In Ab BasE inh, FC(F)(F)c1cc(Cl)nc(-c2ccccc2)n1 reads -1.1

# More results
SMILES	Ab BasE inh	LANA-nucl inh
COCCn1c(-c2cccc(C)c2)nn(CN2CCCC(C(N)=O)C2)c1=S (stereo not given)	1.2	/
N#CC1(NC(=O)Cn2nnc3ccccc3c2=O)CCCC1	-2.3	/
Cc1nc(NCCN2CCOCC2)c2sc3nc4c(cc3c2n1)COC(C)(C)C4	-1.0	/
COCCN=c1scc(-c2ccccc2F)n1/N=C/c1ccco1	-3.8	/
CCn1c(=NC(=O)CN2C(=O)c3ccccc3C2=O)sc2cccc(F)c21	0.7	-0.829
Cc1ccc2oc(=O)c3cc(C(=O)N(C)Cc4ccco4)sc3c2c1	2.5	0.0815
COC(C)(C)/C=C(\N)C(=O)c1ccccc1	-0.3	-1.02
c1ccc2c(c1)COC1(CCCCC1)N2	-4.5	2.33

# One compound at a time, from the list above. Order of values: Ab BasE inh	LANA-nucl inh
# CC(=O)NC(Cc1c[nH]c2ccccc12)C(=O)OCc1cc(=O)n2c3c(sc2n1)CCCC3 (stereo not given) in the list: -0.5	/
# CCOc1ccc(-c2n[nH]c(=S)n2CC)cc1 in the list: -0.5	0.921
# O=C(O)CCn1c(-c2cccs2)n[nH]c1=S in the list: 1.6	/
# O=C(NCCCN1CCOCC1)c1cc2sc3ccccc3c2s1 in the list: -8.9	/
# CN(C)S(=O)(=O)c1cccc(-c2nnc(SCc3ccc4c(c3)OCCO4)o2)c1 in the list: 0.7	/

# (list continues)
SMILES	Ab BasE inh	LANA-nucl inh
Cc1ccc2c(COC(=O)c3c(C)noc3C)cc(=O)oc2c1	1.5	/
CCOc1ccc(S(=O)(=O)N2CCN(C(=O)[C@H](C)NC(N)=O)CC2)cc1	-0.8	/
N#Cc1c(N)nc2c(c1N)CC(=O)N2C1CCS(=O)(=O)C1 (stereo not given)	-0.9	/
CCOCCn1ccc2c(OCC(=O)Nc3ccc4c(c3)OCCO4)cccc2c1=O	0.2	0.198
COC(=O)c1ccc(NC(=O)Cn2cncn2)cc1	1.2	-0.471
O=c1[nH]c(CSCc2ccco2)nc2ccccc12	3.1	0.118
CC(Sc1ccc(F)cc1)C(=O)NC(N)=O (stereo not given)	1.5	/
O=C1NC2(CCN(C(=O)NCC3CCCO3)CC2)Oc2ccccc21 (stereo not given)	3.2	-0.437
O=C(O)c1cccnc1Sc1ccc2c(c1)OCCO2	2.4	/
O=c1cc(CSc2nnc(-c3ccco3)n2Cc2ccccc2)nc2sccn12	2.2	/
CC(=O)NC(=O)c1cc2ccccc2oc1=Nc1ccc(Cl)cc1	-1.6	/
Nc1c(C(=O)N2CCOCC2)sc2nc3c(cc12)CCCC3	1.4	0.456
O=C(Nc1ccc2[nH]c(=O)oc2c1)c1ccccc1	-3.7	2.17
CCOC(=O)C1=C[C@]2(CC)CCCN3CCc4c(n1c1ccccc41)[C@@H]32	-3.0&-2.5	-1.09&-0.374&-0.634&0.0225
Cc1ccc(C=C2C(=O)N(C)C(=O)N(C)C2=O)cc1	-2.3	0.302
CCOc1ccc(C2c3c(oc4ccc(F)cc4c3=O)C(=O)N2CCOC)cc1 (stereo not given)	1.0	-0.564
c1ccc(C2CC(c3cccs3)=Nc3nc4ccccc4n32)cc1 (stereo not given)	13.9	/
COc1ccc(N2CCN(C(=O)c3ccccc3NC(=O)c3ccccc3)CC2)cc1	1.7	0.0835
CCN(CC)C(=O)c1ccccc1Sc1ccccc1C#N	-1.6	-0.222
CC(=O)Oc1c(C)c(C)c2c(c1C)CCC(C)(CCCC(C)CCCC(C)CCCC(C)C)O2 (stereo not given)	0.3	-0.0815&-0.469
O=C(OCC(=O)N1CCC(c2ccccc2)=N1)c1ccc(Br)o1	2.9	/
Cc1ccc(S(=O)(=O)N(C)c2nc3ccccc3nc2SCC#N)cc1	-2.1	/
Cn1c(C(=O)NCc2ccccc2)cc(=O)n(C)c1=O	-0.2	/
N#Cc1ccccc1NC(=O)CCS(=O)(=O)c1ccccc1	-0.4	-1.28
Cc1nc(N)c(C(=O)O)nc1C	1.1	/
O=C(Nc1sccc1-n1cccc1)NC1Cc2ccccc2C1	0.5	-0.352
COC(=O)c1cc(-c2ccc(Br)cc2)on1	1.9	0.01
Cn1c(=N)n(CCCOc2ccc(Br)cc2)c2ccccc21	-24.2	0.372
CSc1ncc(C(=O)N2CCOCC2)cn1	2.3	-0.35
O=C(COCc1cc(-c2ccc3c(c2)OCO3)on1)Nc1ccc(OC(F)(F)F)cc1	-0.7	-0.0315
Cc1ccc(C2C3=C(CC(c4ccco4)CC3=O)Nc3ncnn32)cc1 (stereo not given)	0.9	-1.41
Cc1ccc(S(=O)(=O)NC(=O)Oc2ccc(-c3csnn3)cc2)cc1	2.2	/
CN1CCC(=C2c3ccccc3Sc3ccccc32)CC1	-3.4&0.6	0.439&0.651
O=C(Cc1ccccc1)NCc1ccccn1	0.0	0.715
COc1ccccc1N1CCN(c2cc(N3CCCC3)nc(C)n2)CC1	1.4	-0.959
Cc1ccc(S(=O)(=O)NCC(=O)O)cc1	-2.9	0.0655
COc1cc2c(cc1OC)CN(C(=O)CNC(=O)C13CC4CC(CC(C4)C1)C3)CC2	1.5	/
Cc1cc(C)c(C#N)c(S(C)(=O)=O)n1	-0.5	-0.14
CCS(=O)(=O)c1ccc2oc(SCC(=O)Nc3ccc(Br)cc3F)nc2c1	1.1	/
Cc1ccc(-n2c(=O)[nH]c(=O)c3sc(N)nc32)cc1	0.1	0.681
CCOC(=O)CCN1CCCCC1	4.2	-0.398
O=C(CCn1c(=O)c2cccn2c2cccnc21)NC1CCCC1	-3.1	2.04
CN(C)CCNc1cc(-c2ccncc2)nc2ccccc12	/	1.99
Cn1c(-c2ccccc2)cnc1SCc1ccccc1	-2.1	1.89
CC(c1ccc(F)cc1)N1CCCC1 (stereo not given)	1.9	/
Cc1c(/C=N/N)c2ccccn2c1C#N	2.7	/
CCN(CC)C(=O)Nc1ccc(S(=O)(=O)NC)cc1	-1.7	0.898
CSc1ccc(NC(=O)NC2CCN(c3ncccn3)CC2)cc1	0.7	-1.23
CS(=O)(=O)NCC1CCCO1 (stereo not given)	-0.1	/
CCCC1CC(C)(/C(C)=N\NC(N)=S)OC1=O (stereo not given)	1.0	-0.41
Cn1c(=NC(=O)COCC(=O)N=c2sc3cccc(F)c3n2C)sc2cccc(F)c21	0.5	-1.17
Cc1cc(C)c(S(=O)(=O)Cc2ccccc2)c(=O)[nH]1	/	-0.122

# A portion of the library; rates above refer to the full screens.
